2A StopGo: FMDV 2A StopGo reporter, luciferase signal; Potency, µM (titrated, usually from 57.9 µM), without a hit: at the top dose signal change, negative = less light; 410,000 tested, 1.2% active; human cells with a luciferase reporter of 2A StopGo recoding; control for the full effect not named in the record; active = well fitted falling curve with a large enough effect; inconclusive = small, poorly fitted or top-dose-only effect; inactive = no such curve, though single readings can be large or run the other way; tested in HEK293T cells; also: nearly all actives have a fitted effect of over 45% in size; luciferase light after 4 h
Numbers without * were called inactive; ? = inconclusive; & = joins results of further samples; [ ] = another dose, or the depositor's remark. % is scaled to controls: 0 for no effect and ±100 for the full control effect; potency is read from the fitted curve at half-maximal effect. This is a subset; the hit share may differ from the screen's.

no.	mol	2A StopGo
1	Nc1nc(/C(=C/CC(=O)O)C(=O)N[C@@H]2C(=O)N3C(C(=O)O)=CCS[C@H]23)cs1	-8%
2	Cc1cnc(-n2ncc(C(=O)NCc3ccncc3)c2C2CC2)nc1-c1cccs1	-29%
3	COc1cc(=O)n2c(c1C(=O)NCc1ccco1)CCN(Cc1ccc3nsnc3c1)CC2	-15%
4	CCC1CN(CCNC(=O)c2cscn2)Cc2cc(OC)ccc2O1 (stereo not given)	3%
5	Cc1ncc2c(c1CNC(=O)c1ccc3c(c1)OCO3)CCN(C(=O)c1cc3ccccc3o1)C2	-8%
6	c1ccc2[nH]c(NCCCc3cnc[nH]3)nc2c1	15%
7	O=C(O)CCc1ccc(NCc2cccc(Oc3ccccc3)c2)cc1	-17%&-15%
8	O=C(c1cn(C2CCCN(Cc3cccc(Oc4ccccc4)c3)C2)nn1)N1CCCC1 (stereo not given)	1%
9	COCC1CCCN(Cc2ccc3c(c2)CN(C(=O)c2ccc(-n4cccn4)cc2)CCO3)C1 (stereo not given)	-5%
10	CCn1c(C)nc2cc(NS(=O)(=O)c3ccccc3)cc(C(=O)N3C[C@@H](C)O[C@@H](C)C3)c21	-5%
11	CO[C@H]1[C@H](NC(=O)c2ccsc2)c2ccccc2C12CCN(Cc1cc(Cl)ccc1O)CC2	-11%
12	COCC(=O)Nc1cc(C(=O)N2CCc3c([nH]c4ccccc34)C2)cc2nc(-c3ccccc3)n(C)c12	-14%
13	C[C@@H]1C[C@@H](CC(=O)NCC2Cc3cccc(-c4ccncc4)c3O2)NC(=S)N1 (stereo not given in full)	8%
14	COCc1ccc(CN2CCOc3c(O)cc(-c4cc(C)c5ccc(F)cc5n4)cc3C2)o1	8%
15	COc1ccc(C(=O)N2CCC3(CC2)c2ccccc2[C@@H](NC(=O)c2ccccn2)[C@@H]3OC)c(O)c1	47%[activator]
16	CC(=O)N1CCN(C(=O)c2sc3ncnc(NCC4CCCO4)c3c2C)CC1 (stereo not given)	-10%
17	CC(C)NC(=O)[C@@H]1C[C@@H](Sc2nc3ccccc3[nH]2)CN1C1Cc2ccccc2C1	1%
18	COc1cccc(CNc2ncnc3sc(C(=O)N4CCOCC4)c(C)c23)c1OC	-14%
19	CN1CCCN(C(=O)[C@@H]2C[C@@H](Sc3nc4ccccc4[nH]3)CN2Cc2ccc(OC(F)(F)F)cc2)CC1	-13%
20	CC(C)C(O)c1ccc2c(c1)CN(C(=O)c1ccccc1-n1cccn1)CCO2 (stereo not given)	-2%
21	COC(=O)C1CCCCN1Cc1ccc2c(c1)CN(C1CCSCC1)CCO2 (stereo not given)	-5%
22	c1ccc2sc(C3(NCC4CC4)CCCCC3)cc2c1	14%
23	O=C(NCCc1ccccn1)C1CC12CCN(C(=O)c1ccccc1Cl)CC2 (stereo not given)	-12%
24	COCC(=O)Nc1cc(C(=O)N2CCCCC2c2nccn2C)cc2nc(-c3ccccc3)n(C)c12 (stereo not given)	4%
25	CC(C)c1c(C(=O)NCc2cccnc2)cnn1-c1nccc(-c2cccs2)n1	-17%

Two entries from above, reformatted:
5. Cc1ncc2c(c1CNC(=O)c1ccc3c(c1)OCO3)CCN(C(=O)c1cc3ccccc3o1)C2
  2A StopGo: -8%
16. CC(=O)N1CCN(C(=O)c2sc3ncnc(NCC4CCCO4)c3c2C)CC1 (stereo not given)
  2A StopGo: -10%

The main list resumes with the 2 entries that preceded the break.
no.	mol	2A StopGo
24	COCC(=O)Nc1cc(C(=O)N2CCCCC2c2nccn2C)cc2nc(-c3ccccc3)n(C)c12 (stereo not given)	4%
25	CC(C)c1c(C(=O)NCc2cccnc2)cnn1-c1nccc(-c2cccs2)n1	-17%
26	CO[C@H]1C=CO[C@@]2(C)Oc3c(C)c(O)c4c(O)c(c5c(nc6cc(C)ccn65)c4c3C2=O)NC(=O)/C(C)=C\C=C[C@H](C)[C@H](O)[C@@H](C)[C@@H](O)[C@@H](C)[C@H](OC(C)=O)[C@@H]1C	-18%
27	COc1ccccc1-c1ccnc(-n2ncc(C(=O)NCCCN3CCOCC3)c2C)n1	-21%
28	Cc1c(C(=O)N2CCN(C)CC2)sc2ncnc(NCC3(c4ccccc4)CCOCC3)c12	-10%
29	COc1cccc2c1O[C@H]1C(=O)CC[C@H]3CN(C)CCC231 (stereo not given in full)	-16%
30	CC[C@H](C)[C@H](NC(=O)[C@H](CCCN=C(N)N)NC(=O)[C@H](CCCN=C(N)N)NC(=O)[C@H](CC(C)C)NC(=O)[C@H](Cc1ccccc1)NC(=O)CNC(=O)CN)C(=O)N[C@@H](CCCN=C(N)N)C(=O)N1CCC[C@H]1C(=O)N[C@@H](CCCCN)C(=O)N[C@@H](CC(C)C)C(=O)N[C@@H](CCCCN)C(=O)O	0%[6.7 µM]
31	COc1ccc(OC)c(-c2cc(Cl)c3c(c2)CC(CNC(=O)/C=C/c2ccccn2)O3)c1 (stereo not given)	11%
32	CSc1sc(C(=O)NN)c2c1C(O)CCC2 (stereo not given)	0%
33	Cc1ncc(-c2ccc(F)cc2)c(C2CCCN(Cc3cccc(O)c3)C2)n1 (stereo not given)	-11%
34	Cc1c(C(=O)NCC2CC2)sc2ncnc(NCCN3CCCCC3)c12	-20%
35	CC(NC(=O)c1cc(F)ccc1F)c1nnc2n1CCN(Cc1ccccc1O)CC2 (stereo not given)	1%
36	O=C(c1nc2ncccn2n1)N1CCOc2ccc(C(O)C(c3ccccc3)c3ccccc3)cc2C1 (stereo not given)	-5%
37	CC(C)OC(=O)c1cn(Cc2c(F)cccc2F)c2sc(-c3ccc(NC(=O)C(C)C)cc3)c(CN(C)Cc3ccccc3)c2c1=O	-27%
38	COc1ccccc1Nc1nc(NCCCCO)nc(N2CCCC2)n1	?
39	COc1cc(=O)n2c(c1C(=O)NC(C)c1ccco1)CCN(C(=O)c1cc(C)cc(C)c1)CC2 (stereo not given)	28%
40	COc1cccc(-n2c(SC)nnc2C2CCN(Cc3cccc(OC)c3O)CC2)c1	-17%
41	Cc1ccnn1CC(=O)N1CCOc2c(cc(-c3csc4ccccc34)cc2OC2CCOC2)C1 (stereo not given)	0%
42	Cc1nc(C(=O)N(Cc2cc3ccc(F)cc3nc2N2CCC(O)CC2)CC2CCCO2)cs1 (stereo not given)	7%
43	O=C1Cc2cc(S(=O)(=O)N3CCN(c4ccc(O)cc4)CC3)ccc2N1	-1%
44	COc1ccc(O)c(CN2CCC3(CC2)c2ccccc2[C@@H](NC(=O)c2cccc(F)c2)[C@@H]3OC)c1	2%
45	COc1ccc(CN2CCN(C(C)=O)CC2)cc1OC1CCN(C(=O)c2ccc3ccccc3n2)CC1	12%
46	O=C(c1ccc(Nc2nccc(-c3cc4ccccc4s3)n2)cc1)N1CCC(N2CCCC2)CC1	-27%
47	Nc1nc(Cl)nc2c1ncn2C1OC(CO)C(O)C1F (stereo not given)	6%
48	COCC(=O)Nc1cc(C(=O)NC2C3CC4CC2CC(O)(C4)C3)cc2nc(-c3ccccc3)n(C)c12 (stereo not given)	-10%
49	Cc1ncc2c(c1CNS(=O)(=O)N(C)C)CCN(C(=O)c1ccccc1F)C2	-10%
50	OC[C@@H](O)C(O)[C@H](O)CO	0%

A different layout for 2 compounds above.
[38] COc1ccccc1Nc1nc(NCCCCO)nc(N2CCCC2)n1
  2A StopGo: ?

[39] COc1cc(=O)n2c(c1C(=O)NC(C)c1ccco1)CCN(C(=O)c1cc(C)cc(C)c1)CC2 (stereo not given)
  2A StopGo: 28%

Later entries:
no.	mol	2A StopGo
51	Cc1nnsc1C(=O)NCC1Cc2cccc(-c3ncccn3)c2O1 (stereo not given)	-15%
52	CNc1cc(OC)c(C(=O)N[C@H]2CCN(Cc3ccccc3)[C@H]2C)cc1Cl	-17%
53	O=C(NCCc1nnc2n1CCN(Cc1ccc(F)c(F)c1)CC2)c1ccoc1	-5%
54	COc1ccc(CN2CCOc3c(cc(-c4ncc(C(F)(F)F)cc4Cl)cc3OCC3CCCO3)C2)c(O)c1 (stereo not given)	-12%
55	CN(CCO)C(=O)c1cn(C2CCN(Cc3cccc(C(F)(F)F)c3)CC2)nn1	-10%
56	OCCNc1nc(Nc2ccccc2O)nc(N2CCCC2)n1	-4%
57	CC(=O)N1CCC[C@H]1C(=O)NCC1Cc2cc(F)cc(-c3ccc(F)c(C)c3)c2O1 (stereo not given in full)	2%
58	Cc1c(C(=O)NC2CCCCCC2)sc2ncnc(NCC3CCCO3)c12 (stereo not given)	-9%
59	Cc1cccc(C(=O)NCC2Cc3cc(F)cc(-c4cnccn4)c3O2)n1 (stereo not given)	-15%
60	COC(=O)c1cccc(C(=O)N2CCc3c(cnc(C)c3CNC(=O)/C=C/c3cccs3)C2)c1	-8%
61	OCc1cc2c(cn1)[nH]c1ccccc12	-3%
62	Cc1c(C(=O)N2CCN(C(C)C)CC2)sc2ncnc(NCc3ccco3)c12	-3%
63	CC(N)(COP(=O)(O)O)C(=O)O (stereo not given)	-4%
64	CCC1(C2CCN(Cc3ccccn3)CC2)NC(=O)N(CC2COc3ccccc3O2)C1=O (stereo not given)	?
65	COCc1c(C(=O)NC2CCCC2)cnn1-c1nccc(-c2cccs2)n1	20%
66	CCCS(=O)(=O)NCc1c(C)ncc2c1CCN(C(=O)c1ccc3[nH]c4c(c3c1)CCCC4)C2	-12%
67	COc1ccc(F)c(CN2CCC3(CCC(CNC(=O)c4ccn(C)n4)O3)CC2)c1 (stereo not given)	-12%
68	Cc1ccc(CN2C[C@@H](Sc3nc(C)cc(C)n3)C[C@H]2C(=O)N2CCN(c3ccccc3F)CC2)cc1	30%
69	CC(C)n1cnc2c(NCc3ccccc3)nc(NCCO)nc21	18%
70	COc1ccc(CN2CCOc3c(O)cc(-c4cc(C)c5ccc(F)cc5n4)cc3C2)c(O)c1	-23%
71	Cc1c(C(=O)NCC2(N3CCOCC3)CCCCCC2)cnn1-c1nccc(-c2ccccc2F)n1	-24%
72	COc1ccc(N2C(=O)[C@@H]3C[C@H]2CN3Cc2cccn2-c2ccccn2)cc1Cl	-5%
73	COC(=O)[C@@H]1CCCN1C(=O)c1cc(NC(=O)c2ccccc2)cc2ncn(C3CCCC3)c12	-4%
74	Cc1ccc(C)c(C(=O)N2CCC(C3(c4ccccn4)NC(=O)N(CC4CCCO4)C3=O)CC2)c1 (stereo not given)	-6%
75	CCn1c(-c2ccccc2F)nc2cc(NC(C)=O)cc(C(=O)N(C)Cc3ccc4nccnc4c3)c21	-11%

Numbers 57 to 58 of the list above:
no.	mol	2A StopGo
57	CC(=O)N1CCC[C@H]1C(=O)NCC1Cc2cc(F)cc(-c3ccc(F)c(C)c3)c2O1 (stereo not given in full)	2%
58	Cc1c(C(=O)NC2CCCCCC2)sc2ncnc(NCC3CCCO3)c12 (stereo not given)	-9%

(more compounds)
no.	mol	2A StopGo
76	Cc1c(C(=O)NCC2COCCO2)cnn1-c1nccc(-c2cccs2)n1 (stereo not given)	32%[activator]
77	CO[C@H]1[C@H](NC(=O)c2ccsc2)c2ccccc2C12CCN(Cc1ccc3c(c1)OCO3)CC2	-3%
78	Cc1ncc2c(c1CNC(=O)c1ccccc1F)CCN(C(=O)c1ccc3c(c1)OCCO3)C2	-8%
79	COc1ccccc1-c1ccnc(-n2ncc(C(=O)NCCc3ccccn3)c2C)n1	28%
80	CCC1CN(CCC(=O)N2CCN(c3ncccn3)CC2)Cc2cc(OC)ccc2O1 (stereo not given)	-19%
81	Cc1nc(NCc2cnn(C)c2)sc1-c1ccn(-c2cccc(F)c2)n1	-12%
82	CCCS(=O)(=O)NCc1c(C)ncc2c1CCN(C(=O)c1ccc(Cl)cc1)C2	3%
83	O=C(c1n[nH]c2c1CCCC2)N1CCOc2ccc(C(O)C(c3ccccc3)c3ccccc3)cc2C1 (stereo not given)	-24%
84	Cc1ccc(CNc2ncnc3sc(C(=O)N4CCC[C@H]4C(N)=O)c(C)c23)o1	-13%
85	CC(C)c1c(C(=O)N(C)CC2CCCN(C)C2)cnn1-c1nccc(-c2cccs2)n1 (stereo not given)	9%
86	C=C[C@H]1CN2CC[C@H]1C[C@H]2[C@H](OC(=O)OCC)c1ccnc2ccc(OC)cc12	-15%
87	COc1cccc(CN2CCC3(CCC(CNC(=O)c4ccco4)O3)CC2)c1OC (stereo not given)	-5%
88	CN1c2ccccc2C(NCCCCCCC(=O)O)c2ccc(Cl)cc2S1(=O)=O (stereo not given)	-21%
89	COc1cc(=O)n2c(c1C(=O)N(C)Cc1nonc1C)CCN(Cc1ccccc1Cl)CC2	-14%
90	CCOC(=O)CN(C)C(=O)c1cnn(-c2ncc3c(n2)-c2ccccc2CCC3)c1C	55%[activator]
91	CSc1nnc(CNS(=O)(=O)c2ccc(F)cc2F)n1-c1ccccc1C	3%
92	COc1ccc2[nH]cc(CCNC(=O)C3CC3)c2c1	-8%
93	O=C([C@@H]1C[C@@H](Sc2nc3ccccc3[nH]2)CN1Cc1ccc(Cl)cc1)N1CCN(c2ccccc2F)CC1	10%
94	O=C(O)Cn1c(C(=O)Nc2nc(-c3ccccc3Cl)cs2)cc2ccccc21	31%[activator]
95	Cc1cnc(C)c(-c2cc(F)cc3c2OC(CNC(=O)Cc2c(C)noc2C)C3)n1 (stereo not given)	-2%
96	COc1ccc(O)c(CN2CCC3(CCC(CNC(=O)c4ccccc4)O3)CC2)c1 (stereo not given)	-8%

From PubChem BioAssay
